Screens deposited in PubChem BioAssay by several laboratories.
ALR inh: inhibitors of human ALR sulfhydryl oxidase, primary screen, biochemical, H2O2 detection, HRP-luminol luminescence, single point; FAD-linked sulfhydryl oxidase ALR (Homo sapiens), P55789; purified ALR, DTT oxidation; inhibition, % (concentration not given with the values); 3.8% of 290,000 active; AID 485317, 2010;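 active = mean and each replicate at 75% or more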;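 note: stock transfer was 7.5 nL into about 7.5 µL; 0% = neutral wells and 100% = wells with inactivated enzyme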
Target sequence (P55789 whole entry, looked up): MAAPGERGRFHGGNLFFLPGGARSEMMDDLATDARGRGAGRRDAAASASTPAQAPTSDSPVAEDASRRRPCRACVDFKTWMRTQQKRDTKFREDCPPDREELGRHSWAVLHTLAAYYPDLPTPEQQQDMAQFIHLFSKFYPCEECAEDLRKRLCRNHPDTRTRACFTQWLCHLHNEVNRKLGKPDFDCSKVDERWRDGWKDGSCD
rRNA inh HTS: reduced GFP signal of wild-type E. coli, primary screen, bacterial rRNA inhibitor project, GFP/RFP fluorescence, OD600, single point | E. coli WT GFP vs humanized-ribosome RFP mutants, 24 h; stronger effect = lower value; DMSO median 0, no signal -100 | GFP signal change (wild-type ribosome), % (no concentration beside the values) | 1.6% of 350,000 active;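 active = significant combined selectivity score with lowered wild-type GFP, culture density cut under 30%, mutant RFP and density less affected; inactive = any of these conditions unmet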; note: one replicate is shown; some compounds called inactive have numbers as strong as hits
HNF4A DNA FP: change in binding of human HNF4A to DNA, primary screen, biochemical, fluorescence polarization, FITC-DNA. Hepatocyte nuclear factor 4-alpha (Homo sapiens), P41235. 1 h. activity change, % at 10 µM. 0.3% of 360,000 active. AID 1224865, 2016; in the data active = activity change above about 30%, passing the limit was not always enough;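 note: controls were the assay level and a saturating level of protein; the project sought stronger binding though the title names inhibitors; some compounds called inactive have numbers as strong as hits; positive values seem to mean higher polarization but the record does not say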
Beta2AR agonist: beta2AR agonists driving receptor internalization, primary screen, cell-based, FAP fluorogen, flow cytometry; Beta-2 adrenergic receptor (Homo sapiens), P07550; Am2.2-beta2AR cells; reference of the scale not given here; response, % (concentration not given with the values); 0.43% of 340,000 active;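 active = response above a set limit, near 3 SD of response in nonfluorescent compounds, cut at about 42% in these data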;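 note: stock transfer was 100 nL into about 11 µL; a reference agonist was the positive control; negative values mostly stem from fluorescent compounds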
Target sequence (P07550 whole entry, looked up): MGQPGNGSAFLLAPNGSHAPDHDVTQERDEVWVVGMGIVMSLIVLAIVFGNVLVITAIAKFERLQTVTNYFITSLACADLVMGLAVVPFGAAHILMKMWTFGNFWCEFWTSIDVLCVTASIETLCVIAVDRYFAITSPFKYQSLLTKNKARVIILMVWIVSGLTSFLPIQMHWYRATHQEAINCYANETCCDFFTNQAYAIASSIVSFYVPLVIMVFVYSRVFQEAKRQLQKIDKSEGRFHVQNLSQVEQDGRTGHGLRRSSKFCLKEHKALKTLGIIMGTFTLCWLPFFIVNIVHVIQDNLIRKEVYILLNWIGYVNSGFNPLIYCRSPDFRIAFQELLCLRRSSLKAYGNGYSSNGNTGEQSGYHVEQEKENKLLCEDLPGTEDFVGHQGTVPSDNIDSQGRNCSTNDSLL
UCH37 inh: inhibitors of human UCH37 deubiquitinase, primary screen, biochemical, Ub-AMC cleavage, fluorescence; Ubiquitin carboxyl-terminal hydrolase isozyme L5 (Homo sapiens), Q9Y5K5; purified proteasome/UCH37; inhibition, % (concentration not given with the values); 0.33% of 330,000 active; AID 588478, 2011;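 active = mean of two replicates above 20%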;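 note: 0% = compound-free wells with enzyme and 100% = wells lacking proteasome; stock transfer was 100 nL into about 20 µL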
Target sequence (Q9Y5K5 whole entry, looked up): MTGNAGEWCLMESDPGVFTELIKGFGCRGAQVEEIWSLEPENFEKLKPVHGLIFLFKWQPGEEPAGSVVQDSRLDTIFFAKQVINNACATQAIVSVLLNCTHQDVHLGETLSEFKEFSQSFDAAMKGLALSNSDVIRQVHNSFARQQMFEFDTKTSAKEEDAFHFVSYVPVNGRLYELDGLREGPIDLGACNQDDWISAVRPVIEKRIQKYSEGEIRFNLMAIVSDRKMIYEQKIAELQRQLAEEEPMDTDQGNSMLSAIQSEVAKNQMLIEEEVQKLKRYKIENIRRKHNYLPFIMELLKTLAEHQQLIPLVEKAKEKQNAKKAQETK
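Assay system: Proteasome-bound UCH37. Buffer or medium: pH 7.4 Tris-HCl (50 mM) with ovalbumin, ATP-MgCl2, DTT. Incubation: 30 min preincubation with enzyme, 25 min cleavage at room temperature. Measured by: fluorescence, ex 355 nm, em 460 nm. Read-out basis: percent inhibition. Control set: wells without proteasome as full block, compound-free enzyme plus substrate as uninhibited.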
FGF22 binding: binders of human FGF22 protein, primary screen, FGF22 synaptogenesis inhibitor project, biophysical, thermal shift, single point; recombinant FGF22 thermal shift, SYPRO orange fluorescence; percent of sucrose octasulfate shift, DMSO zero; calls only at 9.99 µM; 1.5% of 340,000 active;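 active = melting point raised past a set limit in the mean and every replicate; three in four hits are not shown here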
E coli growth: E. coli growth inhibition, primary screen, OD600 | Escherichia coli growth, 23 h; stronger effect = lower value | OD600 absorbance (no concentration beside the values) | 0.21% of 330,000 active | AID 1053175, 2014;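 active = OD600 absorbance below the run mean of sample wells minus 3.6 SD, in any replicate, cut at about 0.56 in these data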;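 note: stock transfer was 300 nL into about 60 µL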
rRNA inh HTS OD600: second read-out of rRNA inh HTS, no call of its own (marks repeat the call); OD600 change, %; measured here: OD600 growth;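 optical density of the mix in the first replicate; 0 = DMSO median and -100 = no signal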
rRNA inh HTS RFP: also measured in rRNA inh HTS; calls as there; RFP signal change, %; measured here: RFP humanized mutant strains;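 first replicate; 0 = DMSO median and -100 = no signal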
Active calls of the source: *; i = inactive; x = no result given; & = joins results of further samples. This is a subset, so the mix of outcomes need not match the whole.

SMILES	ALR inh	rRNA inh HTS	rRNA inh HTS OD600	rRNA inh HTS RFP	HNF4A DNA FP	Beta2AR agonist	UCH37 inh	FGF22 binding	E coli growth
CC(=O)Nc1cccc(-c2ccnc3c2CC(C)(C(=O)Nc2cccc(OC(F)(F)F)c2)O3)c1 (stereo unspecified)	x	8	-37	15	-9.2	x	x	i	x
Cc1nnc(Nc2ccc(C(=O)N3CCOCC3)cc2)c2ccccc12	-4	x	x	x	-2.6	4	2.6	x	0.66
CC(=O)Cc1nsc(Nc2ccc3c(c2)OCCO3)n1	-3	x	x	x	3.2	-3	-2.0	x	0.7
Nc1cc(OC(=O)c2c(F)cccc2Cl)nn1S(=O)(=O)c1ccccc1	x	-2	7	-2.2	-1.3	2	0.8	i	0.68
CCOC(=O)c1cccc(NC(=O)c2cc3sccc3n2C)c1	-4	x	x	x	2.3	8	0.7	x	0.73
O=C(/C=C/c1cccnc1)c1ccc(NC(=O)c2cccc(Br)c2)cc1	11	x	x	x	0.5	8	3.4	x	0.66
O=C(NNC(=O)c1cccs1)c1ccc(Cl)nc1	2	-8	-9	3.6	1.8	-1	0.5	i	0.68
N#Cc1ccc(-c2ccc(C3Nc4ccccc4C(=O)N3O)o2)cc1 (stereo unspecified)	26	-7	-1	-9.4	6.1	-5	-8.2	i	0.69
O=C(Nc1ccc(Cl)cc1)C1CCCN(C2=NS(=O)(=O)c3ccccc32)C1 (stereo unspecified)	-2	-3	1	0.6	-3.7	-1	-2.6	i	0.68
COc1cc(C(=O)NCc2nnc(SCC(=O)Nc3nc4ccc(C)cc4s3)o2)cc(OC)c1OC	97*	x	x	x	1.8	12	x	x	x
COC(=O)c1cc(NC(=O)CN(c2ccc3c(c2)OCO3)S(C)(=O)=O)ccc1Cl	-34	x	x	x	-2.2	-2	4.3	x	0.71
Nc1ccn([C@@H]2O[C@H](CNCc3cnc(N4CCOCC4)s3)[C@@H](O)[C@H]2O)c(=O)n1	x	8	3	-2.5	2.0	x	x	i	x
C#CCOCCOCCOCCNc1nc(N2CCN(C(=O)[C@H](CCCCN)n3cc(CCCC)nn3)CC2)nc(N2CCN(C(=O)[C@H](Cc3ccc(O)cc3)n3cc(CCO)nn3)CC2)n1	-10	x	x	x	34	-2	6.4	x	x
COc1ccccc1C(=O)Nc1ccc(C(=O)c2ccccc2)cc1	-3	-32	-41	0.7	-1.3	-8	x	i	x
COc1ccc(-c2nn(-c3ccccc3)cc2/C=C/C(=O)NCCCn2ccnc2)cc1OC	-9	-14	-8	27	2.6	-13	-8.2	i	0.66
C#CCN(Cc1ccco1)C(=O)c1cc(COc2ccc(F)cc2Cl)on1	2	-35	-56	7.6	2.0	4	2.0	x	0.66
CCc1ccc([C@@H]2C[C@H]3[C@@H](CN2S(=O)(=O)c2ccc(C)cc2)C(=O)C[C@@H](c2ccc(Cl)cc2)N3S(=O)(=O)c2ccc(C)cc2)cc1	x	3	12	0.8	-0.1	x	x	i	x
CCc1c(C)nc(SCC(=O)c2cccs2)c(C#N)c1C	-1	x	x	x	6.0	9	3.1	x	0.69
CCOC(=O)Cc1csc(NC(=O)CSc2nnc(C3CC3)n2C)n1	-4	x	x	x	-3.6	-6	-1.2	x	0.65
Cc1cc(NC(=O)CSc2cc(C)c3ccccc3n2)no1	-6	3	5	2.6	-2.3	-4	1.8	i	0.68
COc1ccccc1CC(NC(C)=O)C(=O)NC1CCN(C(=O)Nc2ccccc2Cl)CC1 (stereo unspecified)	1	11	5	0.8	-1.7	-1	3.7	i	0.72
CCOc1ccc2nc(NC(=O)Nc3cccs3)sc2c1	38	-19	-26	-1.1	3.6	-5	3.0	i	0.65
O=C(Cn1cnc2ccccc2c1=O)c1ccc(Cl)cc1	x	-2	-1	0.7	2.9	-10	2.1	i	0.63
CC(=O)NCCCc1nc2ccccc2n1Cc1c(F)cccc1Cl	x	0	-1	4.2	1.8	7	1.8	i	0.68
Nc1ccc(S(=O)(=O)NN=Cc2ccccc2[N+](=O)[O-])cc1	x	2	7	-4.2	7.3	-4	0.9	i	0.7
O=C(NCc1ccc(Cl)cc1)C1CCC(=O)N(C2CCCCCC2)C1 (stereo unspecified)	-19	-6	0	0.5	1.1	-11	-1.4	i	0.66
COC(=O)[C@]12CCCCC=C1N(Cc1ccc(Cl)cc1Cl)C(=O)[C@H](CC(=O)NCCCN1CCCC1=O)C2	x	-52	-70	-3.5	-5.2	x	x	i	x
COc1ccccc1NC(=O)C(C)OC(=O)/C(=C/c1ccccc1)NC(C)=O (stereo unspecified)	14	2	-6	2.5	3.5	4	x	i	x
CC(=O)Nc1ccc(NC(=O)CSC2=NS(=O)(=O)c3ccccc3N2)cc1	x	18	11	2.2	1.4	-1	5.6	i	0.69
O=C(CCc1nnc(COc2ccccc2)o1)NCCc1cccs1	-9	3	1	0.7	4.4	0	5.1	i	0.7
O=C(C1CCCCC1)N1CCN(c2ccccc2F)CC1	2	x	x	x	4.6	-10	1.7	x	0.71
O=C(O)c1cccc(NC(=S)N/N=C/c2ccccc2OCc2cccc(Br)c2)c1	x	-32	-30	-4.5	-2.9	13	x	i	x
CN1CCN(C(=O)c2cc3ccccc3oc2=O)CC1	-4	x	x	x	-1.3	3	1.0	x	0.75
COc1cc(SC)ccc1C(=O)Nc1cc(C)c(OCC(=O)N2CCOCC2)c(C)c1	-5	-10	6	9.6	0.8	-2	2.2	i	0.69
NC(=O)[C@@H]1CCCN1Cc1nc(-c2cccs2)no1	x	41	-3	-7.1	-3.6	-5	3.2	i	0.71
CCOc1cc(C(=S)N2CCCC2)ccc1OCC(=O)Nc1c(C)cc(C)cc1C	-2	x	x	x	-7.0	-5	7.1	x	0.72
C#CCN(C[C@H]1[C@H](OC(=O)NC2CC2)[C@H](OC(=O)NC2CC2)C[C@@H](C(=O)OC)[C@H]1C(=O)OC)S(=O)(=O)c1ccc(C)cc1	x	1	-8	1.3	-1.6	x	x	i	x
CC[C@]12c3[nH]c4cc(-c5ccco5)ccc4c3CCN1C(=O)[C@@H](CC(=O)NCc1cccc(C(F)(F)F)c1)C[C@@H]2C(=O)N1CCN(C(=O)c2ccco2)CC1	x	17	14	36	9.1	-1	-12	i	0.69
OCC1(Cc2cccc(C(F)(F)F)c2)CCN(Cc2cc3ccccc3o2)CC1	-25	-59	-81	-24	2.5	4	2.9	i	0.62
Cc1ccc(OCc2ccc([N+](=O)[O-])cc2)c([N+](=O)[O-])n1	-7	14	12	0.0	-1.6	-3	2.7	i	0.74
CN1CCCN(C(=O)CC2(CC(=O)O)CCCC2)CC1	-3	9	14	2.1	-1.2	9	4.2	i	0.74
CCOC(=O)c1c(NC(=O)c2nn(CC)cc2Br)sc2c1CCCCC2	-3	x	x	x	-0.5	6	-282	x	0.7
Cc1nc2nc(-c3ccco3)[nH]n2c(=O)c1C	2	x	x	x	-0.1	-8	0.1	x	0.64
CC(Oc1ccc2oc(-c3ccccc3)c(C(=O)O)c2c1)C(=O)O (stereo unspecified)	0	x	x	x	2.4	3	-293	x	0.68
CCN(CC)S(=O)(=O)c1ccc(N2CCOCC2)c(NS(=O)(=O)c2ccc(OC)cc2)c1	-11	11	15	-15	-1.3	-14	4.5	x	0.71
O=C(NC1CCC(C(=O)O)CC1)OCc1ccccc1 (stereo unspecified)	-10	8	18	-0.6	2.6&2.4&-1.0	15&-3	2.0&-1.7	i	0.68&0.68
COc1ccc(NC(=O)c2cc(C3CCCCN3S(=O)(=O)c3c(C)noc3C)on2)c(C)c1 (stereo unspecified)	x	-2	-13	-1.9	0.2	x	x	i	x
Cc1ccc(S(=O)(=O)N2CCCCC2)cc1NC(=O)Cn1ncc(Cl)c(Cl)c1=O	8	6	11	4.3	-5.8	41	5.3	i	0.7
O=Cc1c[nH]c2ncccc12	-15	-1	0	-2.6	-2.6	2	-0.7	i	0.68
CN(c1ccc(OCC(=O)O)cc1)S(=O)(=O)c1ccc2ccccc2c1	x	-6	-5	2.7	0.5	4	1.7	i	0.65
COc1ccccc1NS(=O)(=O)c1cccc(C(=O)N2CCN(Cc3ccc4c(c3)OCO4)CC2)c1	-11	-4	-9	4.2	2.6	4	3.2	i	0.69
S=C(NCCc1ccccc1)NCc1ccccc1Cl	5	-56	-75	-35	-1.1	-4	4.2	i	0.66
Cc1ccccc1OCc1nnc(SCc2cc(=O)[nH]c3ccccc23)o1	-9	x	x	x	-0.2	3	3.0	x	0.73
C=CC[C@@H](CC(=O)N(CCO)Cc1ccccc1)C(=O)N[C@H](C)COC(=O)[C@@H](CC=C)Cc1ccc(F)cc1	-2	12	1	23	-1.0	-1	-4.0	i	x
Cc1ccc(C(NC(N)=O)c2ccccc2)cc1 (stereo unspecified)	x	x	x	x	1.8	0	0.1	x	0.64
CSc1ccccc1NC(=O)CN1CCCCC1	2	7	14	-0.7	2.0	-1	0.2	i	0.66
CCc1ccc(OCC(=O)Nc2ccc(-c3nc4ccccc4o3)c(O)c2)cc1	-2	x	x	x	12	93*	-280	x	0.75
Cc1cccc(N(CC(=O)Nc2ccc(-c3nc4ccc(C)cc4s3)cc2)S(C)(=O)=O)c1	-6	x	x	x	-2.2	9	-15	x	0.78
O=c1[nH]c(=S)[nH]cc1Oc1ccc(Cl)cc1	x	-1	-22	-7.4	3.3	3	3.1	i	0.63
Cc1ccc(C(C(=O)NCC2CCCO2)N(C(=O)c2snc(C(N)=O)c2N)c2ccccc2F)o1 (stereo unspecified)	38	-20	-21	-1.0	2.2	1	-326	i	0.64

(list continues)
SMILES	ALR inh	rRNA inh HTS	rRNA inh HTS OD600	rRNA inh HTS RFP	HNF4A DNA FP	Beta2AR agonist	UCH37 inh	FGF22 binding	E coli growth
Cc1cc2nc3c(nc2cc1C)CCCC3	x	3	1	0.0	-3.0	3	-2.8	i	0.66
O=C(CCCc1c[nH]c2ccccc12)N1CCCCCC1	71	x	x	x	3.1	4	3.7	x	0.73
COc1ccc(CN2CN(c3ccc(Cl)cc3)C(=O)N(n3cnnc3)C2)cc1	3	x	x	x	-2.5	-2	4.5	x	0.73
CN1CCc2cc3c(c4c2C1CC41CCC(=NO)CC1)OCO3 (stereo unspecified)	-27	x	x	x	1.5	3	-11	x	0.75

Whole records as entered above:
Results for CN1CCc2cc3c(c4c2C1CC41CCC(=NO)CC1)OCO3 (stereo unspecified) = ALR inh: -27; rRNA inh HTS: x; rRNA inh HTS OD600: x; rRNA inh HTS RFP: x; HNF4A DNA FP: 1.5; Beta2AR agonist: 3; UCH37 inh: -11; FGF22 binding: x; E coli growth: 0.75
Results for O=C(CCCc1c[nH]c2ccccc12)N1CCCCCC1 = ALR inh: 71; rRNA inh HTS: x; rRNA inh HTS OD600: x; rRNA inh HTS RFP: x; HNF4A DNA FP: 3.1; Beta2AR agonist: 4; UCH37 inh: 3.7; FGF22 binding: x; E coli growth: 0.73
